gsp antag: antagonizes gsp, the McCune-Albright syndrome mutation; AID 624288; gsp-mutant cells, cAMP HTRF, 30 min; control for the full effect not named in the record; Potency, µM (series often up to 76.9 µM), for the others: at the top dose activity change, negative = inhibition, actives largely listed as inhibitors; 0.4% of 340,000 active; active = falling curve of any shape with a large fitted effect; inconclusive = falling curve, mostly with a smaller effect; inactive = flat or rising curve; cell line not stated here;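 also: intracellular cAMP measured with PDE inhibitor Ro 20-1724 present during compound exposure; potency is read from the fitted curve at half-maximal effect; % is scaled to controls: 0 for no effect and ±100 for the full control effect; nearly all actives have a fitted effect of over 65% in size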
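HTRF cAMP read-out (cAMP-d2 plus anti-cAMP antibody-K in lysis buffer, 30 min RT). Before lysis, cells are exposed to compounds with […] for 30 min at 37C in DPBS containing Ca/Mg, BSA and Tween 20.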
Sfp PPTase inh: inhibitors of Bacillus subtilis Sfp phosphopantetheinyl transferase; Q9F4F7; 3.5% of 310,000 active; Potency, µM, inactives show max response, negative = inhibition, actives largely listed as inhibitors; Biochemical Sfp PPTase activity, qHTS; AID 1490; active = well fitted inhibition curve with a large enough effect; inconclusive = small, poorly fitted or top-dose-only effect, or another doubt; inactive = no such curve, though single readings can be large or run the other way;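 also: the enzyme is Sfp with the accession as filed and its product quenches rhodamine fluorescence; potency is read from the fitted curve at half-maximal effect; 0% = enzyme reaction without inhibitor and -100% = no enzyme wells; top concentration of the series not given in the record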
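Fluorescence-quenching assay: 15 nM Sfp-PPTase preincubated 15 min at room temperature with compound, then 5 uM rhodamine-CoA and 12.5 uM BHQ-2-labelled YbbR peptide added. Fluorescence (ex 525/em 598 nm) read at start and after 30 min; difference gives rate.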
gsp agonist: agonists of gsp mutant (McCune-Albright syndrome); gsp mutant cells, cAMP HTRF, 30 min; control for the full effect not named in the record; Potency, µM (series often up to 76.9 µM), without a hit: at the highest dose activation (cAMP increase), most hits filed as activators; 0.13% of 340,000 active; AID 624287; active = well fitted activation curve with a large enough effect; inconclusive = small, poorly fitted or top-dose-only effect, or another doubt; inactive = no such curve, though single readings can be large or run the other way; cell line not stated here;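 also: phosphodiesterase inhibitor Ro 20-1724 added with compounds to block cAMP breakdown; potency is read from the fitted curve at half-maximal effect; nearly all actives have a fitted effect of over 60% in size; about a fifth of the inactives were tested at one dose only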
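Cells in DMEM/10% FBS with G418 were pretreated with compounds in DMSO plus […] (300 uM stock) for 30 min at 37C. cAMP was measured by HTRF (cAMP-d2 plus anti-cAMP antibody-K) after 30 min at room temperature.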
PINK1 modulator: PINK1 expression modulation | PINK1 immunofluorescence, high-content cytometry, 24 h | 0.2% of 410,000 active | Potency, µM (titrated, usually from 76.6 µM), for the others: at the highest dose activation (PINK1 increase), most hits filed as activators | AID 624263; active = well fitted activation curve with a large enough effect; inconclusive = small, poorly fitted or top-dose-only effect; inactive = flat fitted curve, though single readings scatter; cell line not stated here;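 also: potency is read from the fitted curve at half-maximal effect; % of control where 0% means no effect; nearly all actives have a fitted effect of over 65% in size; a mitochondrial uncoupler was the plate control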
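Measures PINK1 amount and localization on or inside mitochondria by immunofluorescence. Stable cells get compounds at 5 concentrations for 24 hours before fixation and staining; CCCP controls included.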
D2 agonist: activates the human D2 dopamine receptor; 0.084% of 360,000 active; AID 624465; P14416; activation, % (test concentration not listed); DiscoveRx PathHunter D2 beta-arrestin, luminescence, 90 min; 100% = 57 uM dopamine signal; in the data active = activation above about 40%; inconclusive = about 15% to 40%; inactive = below about 15%; also: compound concentration not given in the record; the text of the record calls up to 30% inactive
Target sequence (P14416 whole entry, looked up): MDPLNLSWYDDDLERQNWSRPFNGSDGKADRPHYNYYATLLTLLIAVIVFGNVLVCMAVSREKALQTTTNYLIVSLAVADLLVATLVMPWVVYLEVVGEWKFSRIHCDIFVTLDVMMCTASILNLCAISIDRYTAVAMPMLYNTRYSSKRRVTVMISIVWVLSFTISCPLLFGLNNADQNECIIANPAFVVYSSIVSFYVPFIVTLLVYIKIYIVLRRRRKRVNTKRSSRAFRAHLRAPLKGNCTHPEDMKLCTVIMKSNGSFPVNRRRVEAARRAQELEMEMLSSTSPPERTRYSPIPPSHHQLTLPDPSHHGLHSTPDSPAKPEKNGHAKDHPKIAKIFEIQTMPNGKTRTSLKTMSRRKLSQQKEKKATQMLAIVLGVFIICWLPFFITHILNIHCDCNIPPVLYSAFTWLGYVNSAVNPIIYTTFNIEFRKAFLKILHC
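DiscoveRx PathHunter D2 beta-arrestin cells (2,100/well) attached overnight, then compound-stimulated 90 min at 37 C in HBSS/10 mM HEPES/0.1% Tween-20 buffer; beta-galactosidase complementation read by luminescence after 1 h at ambient temperature. Dopamine 57 uM final (EC100) as control.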
ClpP mod: qHTS Assay for Activators of ClpP; ATP-dependent Clp protease proteolytic subunit (Bacillus subtilis (strain 168)), P80244; AID 651965, 2013; 1.9% of 340,000 active; purified B. subtilis ClpP, FRET peptide cleavage, 20 min; Potency, µM (highest dose often 57.5 µM), for inactives: top-dose activity change, negative = active; active = well fitted falling curve with a large enough effect; inconclusive = small, poorly fitted or top-dose-only effect; inactive = no such curve, though single readings can be large or run the other way; also: potency is read from the fitted curve at half-maximal effect; the source files actives as falling curves though it sought activators and does not explain the sign; nearly all actives have a fitted effect of over 65% in size; many hits overshoot -100%
Target sequence (P80244 whole entry, looked up): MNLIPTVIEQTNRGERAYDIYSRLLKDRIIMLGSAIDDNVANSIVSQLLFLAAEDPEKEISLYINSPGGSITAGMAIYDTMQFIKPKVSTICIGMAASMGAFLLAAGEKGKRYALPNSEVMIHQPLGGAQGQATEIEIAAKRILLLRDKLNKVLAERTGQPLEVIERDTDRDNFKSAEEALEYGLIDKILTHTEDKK
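Purified B. subtilis ClpP, 10 microg/mL final in Tris/HCl pH8 with KCl, BSA, glycerol and Tween-20, cleaved an Abz/nitrotyrosine-quenched decapeptide. Fluorescence (ex 320, em 430) was read at 0 and 20 min at room temperature. Delta was normalized to 5.8 microM ADEP and DMSO/no-enzyme controls.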
Menin-MLL FL inh: displaces fluorescein MLL peptide from human menin; Fluorescence polarization, fluorescein-MLL peptide displacement from menin; FP activity change, % at 61.4 µM; 290,000 tested, under 10 active; inconclusive = falling polarisation curve, or a change in total fluorescence; inactive = total fluorescence flat and polarisation flat or rising; no compound was filed as active; the % refers to the polarisation; negative = inhibition;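 also: % of control where 0% means no effect; inhibitors lower the polarisation; unlabelled MLL peptide was the positive control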
* = called active by the depositor; ? = inconclusive; . = no result given; & = joins results of further samples; [ ] = another dose, or the depositor's remark.

Value order: gsp antag	Sfp PPTase inh	gsp agonist	PINK1 modulator	D2 agonist	ClpP mod	Menin-MLL FL inh
> O=C(C1=COCCO1)N1CCN(c2nc3ccc([N+](=O)[O-])cc3s2)CC1
  1%	.	-9%	?	2.2	-0.2%	.
> CNC(=O)Cn1nc(C)c2ccccc2c1=O
  4%	12%	-38%[inhibitor]	3.2%[38.3 µM]	-2.6	-0.6%	2.5
> O=C(NCc1ccccc1CN1CCCC1)c1cc2cc(Cl)ccc2o1
  9%	.	-4%	2.1%	5.5	-5.0%	.
> COc1ccc(OCc2cc(=O)c3ccc4c(c3o2)C=CC(C)(C)O4)cc1OC
  -29%	.	.	2.8%	0.8	-1.1%	.
> O=C(NC1CCN(C(=O)c2cccc([N+](=O)[O-])c2)CC1)c1ccccc1
  -5%	9%	-20%	0.0%	0.9	.	3.7
> Cc1ccc(-n2c(SCC(=O)N3CCOCC3)nnc2-c2ccncc2)cc1C
  -3%	18%	?	-0.3%	-6.1	-3.9%	-1.0
> CCOC(=O)C(CC)n1cnc2c(oc3ccccc32)c1=O (stereo not drawn)
  -9%	20%	0%	-1.7%	-3.2	-1.0%	-1.6
> Cc1ccc(-c2nnc(SCc3ccc(C#N)cc3)n2Cc2ccco2)cc1
  -15%	-6%	7%	-1.1%[38.3 µM]	1.0	-3.0%	2.7
> CN(C)CCNC(=O)c1c(CSc2ccccc2)noc1C(=O)NCc1ccccc1
  7%	20%	-5%	-0.6%	-1.8	0.9%	0.1
> COc1c(/C=N/NC(=O)c2ccccc2O)c(CCN(C)C(C)=O)cc2c1OCO2
  -6%	-4%	0%	1.3%	-6.0	1.7%	-2.6
> Cc1ccc(OC(=O)N(C)C[C@@H]2OCc3cn(nn3)CCCC(=O)N([C@@H](C)CO)C[C@H]2C)cc1
  .	.	-8%	2.7%	-8.0	-1.1%	.
> COc1ccc(OC)c(NC(=S)N2CCN(Cc3ccccc3)CC2)c1
  5%	-24%	10%	-0.5%	-2.1	-2.5%	-2.4
> COc1cc(/C=C2\C(=O)ON=C2c2ccccc2)cc(Cl)c1O
  .	-31%	-4%[15.4 µM]	6.4%	-3.9	.	?
> CCCNC(=O)c1cc(-c2ccc(OC)cc2)on1
  -8%	4%	5%	-4.2%[38.3 µM]	-1.6	-23%	1.8
> Cc1cc(C)nc(SCC(=O)NN=C2CCCC2)n1
  0%	14%	8%	-0.4%	3.5	-0.8%	-4.3
> Cc1ccccc1NC(=O)CNC(=O)N1CC(=O)Nc2ccccc21
  .	.	-46%[inhibitor]	0.1%	-3.5	-2.5%	.
> Cc1nnc(Sc2nc3c(c(=O)n(C)c(=O)n3C)n2Cc2ccccc2Cl)s1
  1%	.	9%	10%	0.2	5.8%	.
> NS(=O)(=O)c1ccc(CCNC(=O)C2CCCN(S(=O)(=O)c3cccnc3)C2)cc1 (stereo not drawn)
  7%	5%	-3%	-0.9%	-2.4	0.3%	0.0
> NCC[C@H](O)C(=O)N[C@@H]1C[C@H](N)[C@@H](O[C@H]2O[C@H](CN)[C@@H](O)[C@H](O)[C@H]2O)[C@H](O)[C@H]1O[C@H]1O[C@H](CO)[C@@H](O)[C@H](N)[C@H]1O
  1%	0%&-6%	.	0.5%	-4.6	-0.1%	0.1&-0.8
> O=C1CC(N2CCN(c3ccccn3)CC2)C(=O)N1c1ccc(F)cc1 (stereo not drawn)
  -11%	-8%	-9%[15.4 µM]	3.4%	4.2	.	-3.0
> NC(=O)c1cccc(-c2cccc3nccn23)c1
  .	.	.	1.6%	-4.5	-17%	.
> C=CCNC(=O)C(=O)NCC(c1ccc2c(c1)OCO2)N1CCOCC1 (stereo not drawn)
  19%	11%	?	-0.4%	-4.1	-1.3%	-0.1
> Cn1c(=O)oc2cc(S(=O)(=O)N3CCN(c4ccccc4F)CC3)ccc21
  15%	12%	-52%[inhibitor]	2.2%	-2.7	1.5%	?
> CCCOc1cccc(C(=O)NCCNC(=O)c2ccccn2)c1
  2%	8%	21%	1.7%	-0.5	.	11
> COc1cccc(C2=CC(=O)CC(C)(C)C2)c1OC
  10%	.	22%	1.0%	-2.7	0.2%	.
> CCC1CCCCN1C(=O)c1ccccc1OC1CCN(S(C)(=O)=O)CC1 (stereo not drawn)
  6%	13%	0%	0.1%	-1.2	1.4%	-2.6
> CCCSc1ccc([C@H]2N[C@@](C)(C(=O)OC)[C@H]3C(=O)N(CC)C(=O)[C@@H]23)cc1
  -3%	.	2%	-0.7%	-3.5	-4.2%	.
> Cc1ccnc(NS(=O)(=O)c2ccc(CC(C)C)cc2)c1
  3%	21%	?	4.8%[38.3 µM]	-1.6	?	-1.8
> CC(C)n1c(C(F)(F)F)nc2cc(C(=O)N3CCCCC3)ccc21
  10%	-1%	-8%[15.4 µM]	-1.0%	-5.0	0.3%	-2.1
> CC(C)Cn1c(N)c(C(=O)CSc2nccn2C)c(=O)n(C)c1=O
  0%	.	-3%	6.8%	-3.3	-3.1%	.
> CCN(CC)CCOc1ccccc1OC
  9%	-10%&-27%	-51%[inhibitor]	3.4%	-1.8	-0.3%	-0.7
> O=C(NCCc1ccc(Cl)cc1)C1CCC(=O)N1C1CCCC1 (stereo not drawn)
  0%	5%	-2%	.	-3.2	0.5%	-3.4
> Cc1cc(NC(=O)c2cccs2)ccc1NC(=O)Cc1ccccc1
  0%	13%	-66%[inhibitor]	1.4%	6.7	?	-0.5
> Cc1ccc(CSc2nnc(-c3cccnc3)o2)cc1
  12%	18%	55%	-0.1%	1.0	-1.5%	0.9
> O=C(NC1CC1)C1CCCN(C(=O)Nc2ccc(F)cc2)C1 (stereo not drawn)
  10%	10%	-25%	0.6%	-6.6	1.3%	3.3
> CC(/C=C1\SC(=S)N(CCCC(=O)Nc2ccc(C(=O)O)c(O)c2)C1=O)=C\c1ccccc1
  -8%	?	-3%	0.4%	-8.6	?	21
> Cc1cc(NC(=O)CCCC(=O)N(c2ccccc2)C(C(=O)NC2CCCCC2)c2cccs2)no1 (stereo not drawn)
  8%	2%	26%	15%	-3.8	0.9%	1.7
> Cc1cc(=O)oc(C)c1C(=O)NCc1cccnc1
  -1%	18%	?	7.2%[38.3 µM]	-2.8	-1.3%	6.8
> O=C(CNC(=O)N1CC(=O)Nc2ccccc21)Nc1ccc(F)c(Cl)c1
  -13%	10%	1%	-0.1%	-3.0	1.4%	-2.6
> COc1ccc(N(CC(=O)Nc2cc(OC)cc(OC)c2)S(=O)(=O)c2c(C)n[nH]c2C)cc1
  -27%	2%	19%	2.0%	-3.1	.	.
> Cc1cc(SCc2ccccc2C)nc(=O)[nH]1
  -4%	6%	6%	1.6%	-0.6	-2.1%	.
> CC(C)C1Oc2cc3oc(=O)ccc3cc2C1=O (stereo not drawn)
  1%	10%	16%	-1.1%	2.5	.	-1.4
> CCOCCCN(C(=O)c1snc(C(N)=O)c1N)C(C(=O)NCCC(C)C)c1ccc(Cl)cc1 (stereo not drawn)
  -6%	16%	-39%[inhibitor]	0.8%	-0.9	.	-1.7
> O=C(O)/C(=C\c1ccco1)NC(=O)c1ccccc1
  10%	-27%	-15%	1.6%	-11	1.7%	13
> Cc1cc(C)c(C)c(S(=O)(=O)ON2C(=O)c3ccccc3C2=O)c1C
  14%	22µM*	-4%	-0.3%	-7.3	?	3.5
> CSc1ncccc1C(=O)NCc1nnc2ccccn12
  -1%	.	?	-1.4%	-2.8	.	.
> O=C1OCCN1C(=O)[C@H]1[C@H](c2ccc(F)cc2)C(c2ccccc2)=NN1c1ccccc1
  ?	20%	.	-0.4%	-2.7	-25%	?
> O=C(CN(Cc1ccco1)C(=O)c1cccc(Cl)c1)Nc1c(Cl)cc(Cl)cc1Cl
  -11%	?	-9%	5.3%	-0.1	2.1%	-1.3
> COC(=O)Cn1cnc(C(=O)Nc2ccc(C)c(C)c2)n1
  4%	.	.	0.9%	-0.7	-0.3%	.
> O=C(c1sc2cccc(F)c2c1Cl)N1CCN(c2ncccn2)CC1
  3%	-7%	0%[15.4 µM]	2.5%	1.4	-9.2%	1.2
> O=Cc1cc(N=Nc2cccc(C(=O)O)c2)ccc1O
  -3%	-7%	1%	0.8%	-4.1	.	1.3
> CC(N=Cc1c(O)c2ccccc2oc1=O)C(=O)O (stereo not drawn)
  -15%	9%	-40%[inhibitor]	-1.0%	-1.7	.	-2.2
> COc1ccc(N2CCN(C(=O)CNC(=O)c3ccccc3Cl)CC2)cc1
  4%	14%	-8%[15.4 µM]	-1.6%	-0.5	.	-0.9
> COc1cc(NC(=O)NCCN2CCN(c3ccccc3)CC2)cc(OC)c1OC
  -11%	1%	-10%[15.4 µM]	1.3%&-0.1%	4.1	1.3%&-3.5%	0.0
> CNC(=O)CSc1nc2cccnc2n1-c1ccc(F)cc1
  -1%	7%	-10%[15.4 µM]	-1.9%	-0.1	-1.8%	1.6
> C1CCc2c(c(N3CCOCC3)nc3sc4c(N5CCOCC5)nnnc4c23)C1
  -8%	.	7%[15.4 µM]	-1.8%	-1.9	-1.2%	.
> O=C(c1ccc([N+](=O)[O-])o1)N1CCc2ccccc21
  -5%	10%	-5%[15.4 µM]	-0.7%	1.9	0.4%	5.5
> Cc1cn(CC(=O)N[C@H](C)c2cccc3ccccc23)c(=O)[nH]c1=O
  -4%	.	.	0.0%	-2.2	0.9%	.
> Cc1ccc(CNC(=O)C2(S(=O)(=O)c3ccc(C)cc3)CC2)cc1
  3%	7%	-16%	-2.5%	-2.2	.	0.2
> Cc1ccc(C)n1-c1nc(=S)[nH][nH]1
  2%	14µM*	?	4.5%[38.3 µM]	3.3	-1.5%	0.4
> O=C(Cn1cc(C(=O)C2CC2)c2ccccc21)Nc1ccccc1Cl
  10%	26%	0%[15.4 µM]	-0.1%	-3.2	.	0.5
> O=C1CS/C(=C\[N+](=O)[O-])N1c1ccc(OC(F)(F)F)cc1
  -2%	19%	-37%[inhibitor]	1.2%	-4.6	0.5%	-2.1
> COc1cc(-c2noc(C)c2C(=O)NCc2ccc(C)o2)cc(OC)c1OC
  -3%	.	.	1.3%	-2.3	-1.1%	.

From PubChem BioAssay
